From PubChem
HCMV UL50-53 inh: inhibitors of HCMV UL50-UL53 interaction, biochemical, HTRF. normalized percent inhibition. HCMV UL50-UL53 nuclear egress complex (human cytomegalovirus). 190,000 tested, 0.15% active. inhibition, % (test concentration not listed);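 active means both replicates at 50% or more, plus weaker picks with an unusually low signal ratio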;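 further: stock transfer was 100 nL into about 20 µL; 0% = negative control wells and 100% = wells with untagged competitor protein; inactives centre near -12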
Sa growth 42C: S. aureus growth inhibition at 42 and 30 °C, primary screen, LtaS inhibitor project, RN4220, two temperatures | OD600, 20 h, 42 °C; stronger effect = lower value | relative growth, % (test concentration not listed) | 170,000 tested, 0.53% active | AID 720641, 2013;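 active means growth at 42 °C up to 50% and 20 or more points under that at 30 °C, or under 10% at both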;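 further: 300 nL library stock went into each well; scaled to the means of positive and negative controls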
GIV Gai3 FP: inhibitors of GIV peptide binding to Galpha-i3, primary screen, biochemical, fluorescence polarization, FITC-GIV GBA peptide, rat Galphai3 | Guanine nucleotide-binding protein G(i) subunit alpha-3 (Rattus norvegicus), P08753 | 90 min; stronger effect = lower value; scaled: aluminum fluoride 0%, vehicle 100% | percent of control (FP), % (test concentration not listed) | 210,000 tested, 0.42% active | AID 1224905, 2016;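 active means replicate mean at 85% of control or lower, very high polarization wells dropped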;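 further: wells of about 15 µL received 100 nL stock; the first replicate is given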
Target sequence (P08753 whole entry, looked up): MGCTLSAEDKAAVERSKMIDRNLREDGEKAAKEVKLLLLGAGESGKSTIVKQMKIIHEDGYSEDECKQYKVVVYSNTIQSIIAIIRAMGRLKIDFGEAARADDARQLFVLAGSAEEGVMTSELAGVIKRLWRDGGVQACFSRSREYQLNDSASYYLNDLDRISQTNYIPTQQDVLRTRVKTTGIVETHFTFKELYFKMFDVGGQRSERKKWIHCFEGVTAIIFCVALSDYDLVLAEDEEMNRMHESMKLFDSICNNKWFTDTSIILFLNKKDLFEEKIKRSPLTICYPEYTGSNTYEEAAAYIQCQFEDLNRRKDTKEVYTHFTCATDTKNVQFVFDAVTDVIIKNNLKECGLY
Sa growth 42C second temp: also measured in Sa growth 42C; calls as there; relative growth, %; measured here: growth at 30 °C;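 optical density after 20 h as mean of two plates; 100% = untreated growth and lower means inhibition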
* marks the source's active call; other numbers are inactive results; nt = no result given.

mol	Sa growth 42C second temp	GIV Gai3 FP	HCMV UL50-53 inh	Sa growth 42C
COc1ccc(N(C(=O)C(F)(F)F)C(C(=O)NC2CCCCC2)c2ccc(C)o2)cc1 (stereo not given)	83	nt	-3	115
NNc1nc2ccc(Cl)cc2s1	22	102	-18	33
Cc1nn(-c2ccc(N3CCOCC3)nn2)c(C)c1CCC(=O)NCc1ccc(Cl)cc1	97	108	nt	88
O=C(NCC1CC1)Nc1ccc(Cl)cc1	80	104	5	97
O=C(COc1cccc2ccc(N3CCCCC3)nc12)Nc1ccc(Br)cc1	nt	100	-29	nt
COc1ccc(NS(=O)(=O)c2ccc(N3CCCCS3(=O)=O)cc2)cc1Cl	90	98	nt	100
COCc1cc(C)nc2sc3c(=O)n(-c4cccc(OC)c4)nnc3c12	nt	110	-9	nt
Cc1onc(-c2ccccc2)c1C(=O)c1ccc(F)cc1	101	107	-18	101
CCN(CCCNC(=O)CN1N=C(c2ccc(OC)cc2)CCC1=O)c1cccc(C)c1	99	103	nt	112
C=CCN1C(=O)S/C(=C\c2cn(CC(=O)N3CCOCC3)c3ccccc23)C1=O	91	102	nt	106
CCc1nc2nc3c(cn2n1)C(=O)CC(C)C3 (stereo not given)	nt	104	7	nt
CCOC(=O)c1csc(C2COc3ccccc3O2)n1 (stereo not given)	79	105	-9	84
CCNCC(=O)Nc1ccc2c(c1)OCCO2	84	nt	-13	105
CCOc1cc(C=C2C(=O)NC(=S)NC2=O)cc(Br)c1OCc1ccc(Cl)cc1	66	102	nt	114
Cc1nc(-c2nnc(SCc3ccc(C(F)(F)F)cc3)o2)cs1	98	101	0	105
O=C(NCCN1CCOCC1)c1n[nH]c(=O)c2ccccc12	88	nt	-23	91
COc1ccc(OC)c(CNC(=O)c2ccc(-n3nnc4cccnc43)cc2)c1	nt	123	-15	nt
O=C(C1CCN(c2ncnc3c2nc2n3CCCCC2)CC1)N1CCN(c2ccccc2F)CC1	91	98	nt	109
O=C(COc1ccccc1)c1c[nH]c2ccccc12	95	158	2	110
CCC1CN(C(=O)C2CCN(S(=O)(=O)c3c(C)noc3/C=C/c3ccc(C)cc3)CC2)c2cc(C)ccc2O1 (stereo not given)	105	107	nt	106
O=C(Nc1ccc(Cl)cc1)N1CCC(c2nc(-c3ccc(F)cc3)no2)CC1	74	98	20	99
COc1ccccc1C1C=C(c2ccc(C(C)C)cc2)Nc2nnnn21 (stereo not given)	87	105	nt	112
N#Cc1ccccc1NC(=O)CCCC(=O)O	90	99	-3	93
COc1ccc(CC(=O)NCCc2sc(-c3ccc(Cl)cc3)nc2C)cc1OC	90	104	nt	95
CCC(c1nnc(SCC(=O)c2ccccc2)n1Cc1ccccc1)N(C)C (stereo not given)	93	nt	-21	90
O=C(NCc1ccco1)c1ccccc1	94	108	-20	116
COc1cc(-c2nn(CN3CC(C)OC(C)C3)c(=S)o2)cc(OC)c1OC (stereo not given)	91	nt	-12	97
Cc1ccnc(NCc2ccc(Cl)cc2)c1	82	98	-11	83
O=C(c1ccc2snnc2c1)N1CCN(c2ccccn2)CC1	nt	103	-20	nt
C=CCn1c(SCC(=O)Nc2sc(C(=O)OC)c(C)c2C(=O)OC)nc2ccccc21	90	nt	-4	103
Cc1cc(C)nc(Oc2ccc(Br)cc2Br)n1	101	105	-26	122
Cc1cc(N)n(C2CCOC(C)(C)C2)n1 (stereo not given)	86	nt	-2	111
CCOC(=O)c1c(Nc2ccccc2N)cc(C)nc1C	90	102	-8	97
Cc1ccc(O)c(C(C)(C)C)c1	89	nt	-12	98
Nc1sc2c(c1-c1nc3ccccc3[nH]1)CCCC2	73	nt	-14	119
CCC(=O)N1CCc2cc(Br)cc(S(=O)(=O)N3CCN(c4cc(C)ccc4C)CC3)c21	92	103	-10	82
CCOc1ccc(-c2nc(CSc3nc4ccccc4n4c(C)nnc34)c(C)o2)cc1	nt	103	-17	nt
Cc1csc2nc(O)c(C(=O)NCCCN3CCOCC3)c(=O)n12	80	97	-8	82
Cc1cc(NC(=O)c2cccn2-c2cccnc2)ccc1Br	nt	109	-13	nt
COc1cc(NC(=O)Cn2nc(C(F)(F)F)c3c2CCCC3)c(OC)cc1Cl	90	100	-13	98
O=C(CSc1ccccc1)N1CCCN(c2ccc(=O)n(-c3ccccc3)n2)CC1	nt	101	-34	nt
CCOC(=O)NC1C=CS(=O)(=O)C1 (stereo not given)	94	108	nt	119
CC(C)CNC(=O)c1ccc2c(=O)n(C(C)C)c3nn(CC(=O)NC(C)C)c(=O)n3c2c1	nt	108	-14	nt
CC(C)CSc1nnc(-c2ccccc2)c(-c2ccccc2)n1	66	103	-26	78
Cc1c(Cl)cccc1NC(=O)Cn1cnc2nc3c(cc2c1=O)CCCC3	102	109	nt	101
O=c1c2ccccc2nnn1CSc1ncnc2sccc12	90	nt	-25	72
Cc1ccc(C2CCCN2S(=O)(=O)c2cc(C)c(C)cc2C)cc1 (stereo not given)	nt	104	-30	nt
Cc1nc2c3cc(F)ccc3n(C)c2s1	71	105	0	120
O=C(Cc1n[nH]c(=O)c2ccccc12)NCCc1ccccn1	84	nt	-30	78
CCc1nc2nc3c(c(NCc4ccc(F)cc4)n2n1)CCC3	nt	103	-19	nt
Cc1ccc(CCNC(=O)c2cc(=O)[nH]c3ccc(S(=O)(=O)N4CCCC4)cc23)cc1	103	106	14	98
CC(C)CCOc1ccc(C(=O)C(C)C)cc1	85	nt	-16	86
CCOc1ccc(NC(=O)c2c(NC(=O)c3ccccc3Br)sc3c2CCC(C)C3)cc1 (stereo not given)	90	101	-5	94
C/C(=N/NS(C)(=O)=O)c1ccc2ccccc2c1	110	98	-57	107
Cc1noc(Cn2c(=O)c3ccccc3n(CC(=O)Nc3cccc(F)c3)c2=O)n1	nt	106	2	nt
Cc1cccc(OCCSc2nc3ccccc3n2CC(O)CO)c1 (stereo not given)	nt	99	-6	nt

Following part
mol	Sa growth 42C second temp	GIV Gai3 FP	HCMV UL50-53 inh	Sa growth 42C
COc1cc(C(CC(=O)NCc2ccccc2)N2Cc3ccccc3C2=O)cc(OC)c1OC (stereo not given)	90	100	nt	97
CCOC(=O)CC(NS(=O)(=O)c1ccc2[nH]c3c(c2c1)CCCC3)c1ccccc1Cl (stereo not given)	73	105	nt	69
CCC(C(=O)NC1CCN(C)CC1)c1ccccc1 (stereo not given)	110	108	0	109
CCOC(=O)c1ccc(NC(=O)CSc2nnc(CNC(=O)c3ccc(OC)cc3)n2CC)cc1	91	108	14	107
COc1cc(CNC(=O)C2CCCC2)cc(OC)c1OC	86	nt	-5	109
COc1ccc(N2CC(C(=O)NC3=NCCS3)CC2=O)cc1 (stereo not given)	94	100	-2	104
Cc1cc(C)c(Nc2c(C(=O)N3CCCCC3)cnc3ccc(F)cc23)c(C)c1	nt	100	-7	nt
Cc1ccc(NC(=O)c2oc3ccc4c(c3c2C)C(=O)CC(C)(C)O4)c(C)c1	94	102	nt	97
CCN(C(=O)Cn1c(=O)oc2ccccc21)c1cccc(C(F)(F)F)c1	101	103	nt	93
CCc1ccc(NC(=O)c2ccc(CNc3c(NC4CCCC4)c(=O)c3=O)cc2)cc1	nt	101	-26	nt
CCNC(=O)CCCN1C(=O)CCn2nc(-c3cccn3C)cc21	88	103	nt	97
COc1cc(Cl)c(NC(=O)CCn2ccc(C)n2)c(OC)c1	88	97	-18	92
CC1=NN(c2ccccc2)C(=O)C1/C=C1\C(=O)NC(=O)N(c2ccc(C)cc2)C1=O (stereo not given)	nt	108	-19	nt
COc1cccc(C(=O)N2CCN(C(=O)c3cc(OC)cc(OC)c3)CC2)c1	75	100	-15	83
O=C(CSc1nnc2ccccn12)N1CCCC1	96	nt	3	114
O=C(Nc1c(C(=O)N2CCN(c3ccccc3)CC2)oc2ccccc12)c1ccc(Br)o1	58	103	0	111

Five consecutive entries out of the list so far, quoted:
mol	Sa growth 42C second temp	GIV Gai3 FP	HCMV UL50-53 inh	Sa growth 42C
CCN(C(=O)Cn1c(=O)oc2ccccc21)c1cccc(C(F)(F)F)c1	101	103	nt	93
CCc1ccc(NC(=O)c2ccc(CNc3c(NC4CCCC4)c(=O)c3=O)cc2)cc1	nt	101	-26	nt
CCNC(=O)CCCN1C(=O)CCn2nc(-c3cccn3C)cc21	88	103	nt	97
COc1cc(Cl)c(NC(=O)CCn2ccc(C)n2)c(OC)c1	88	97	-18	92
CC1=NN(c2ccccc2)C(=O)C1/C=C1\C(=O)NC(=O)N(c2ccc(C)cc2)C1=O (stereo not given)	nt	108	-19	nt

(continued)
mol	Sa growth 42C second temp	GIV Gai3 FP	HCMV UL50-53 inh	Sa growth 42C
C=CCN(CC(=O)N1CCN(c2ccccc2)CC1)S(=O)(=O)c1ccccc1C(F)(F)F	91	nt	13	94
Cc1ccc(N(C)S(=O)(=O)c2nnc(NC(=O)C3CCCCC3)s2)cc1	92	103	-22	111
O=C(c1ccc(Nc2nc3ccccc3n3cnnc23)cc1)N1CCN(C2CCCCC2)CC1	87	100	-34	96
O=C(NC1CCCCC1)C1c2ccccc2C(=O)N1Cc1ccc2c(c1)OCO2 (stereo not given)	79	101	-8	100
Cc1ccc2oc(=O)c(C(=O)O)cc2c1	86	103	-51	95
Cc1cc(C)c2c(n1)sc1c(=O)n(-c3cc(Cl)ccc3C)nnc12	94	103	-27	126
CC1CCCCC1NC(=O)c1ccc(CS(=O)(=O)c2cccc(C(F)(F)F)c2)o1 (stereo not given)	92	103	-10	88
Cc1nc2nc(C)n(-c3ccccc3)c2s1	69	144	-21	97
O=C(OCC(=O)N1CCCCC1)c1ccc(O)cc1	92	nt	-1	128
O=C1C2=C(Nc3ccccc3SC2c2cccc(Cl)c2)c2ccccc21 (stereo not given)	nt	108	-37	nt
Cc1ccc(N2C(=O)SC(N(C)c3ccccc3)C2=O)cc1 (stereo not given)	97	102	-24	109
N#Cc1cn(-c2ccccc2)nc1-c1cccs1	94	nt	-6	123
CCOc1ccc(NC(=O)CSc2nnc(CNC(=O)c3c(F)cccc3Cl)o2)cc1	89	104	-13	113
O=C(OCCOc1ccccc1)c1ccc(-n2cnnn2)cc1	83	nt	-22	95
O=C(COC(=O)C12CCC(=O)N1c1ccccc1C(=O)N2C1CC1)Nc1ncc(Cl)cc1Cl (stereo not given)	89	nt	3	113
CCOc1ccc(CCNC(=O)C2CCN(Cc3nc(-c4ccc(OC)c(OC)c4)oc3C)CC2)cc1OCC	87	103	-15	104
CC(=O)N1c2ccc(S(=O)(=O)NC(Cc3ccccc3)C(=O)Nc3nc(C)cs3)cc2CC1C (stereo not given)	nt	102	-13	nt
COc1ccc(OC)c(NC(=O)CN2C(=O)c3ccccc3Sc3ccc(C(=O)N4CCCC4)cc32)c1	89	110	nt	93
CC(C)c1ccc(NC(=O)C2CC(=O)Nc3nc4ccccc4n32)cc1 (stereo not given)	93	96	-14	97
COc1ccc2nc(SC/C(O)=C(\C#N)C(=O)NCc3ccccc3)[nH]c2c1	81	nt	-12	91
COc1ccc2c(=O)c(-c3ccc(OC)c(OC)c3)coc2c1	83	nt	-8	105
CCc1ccc(-c2cc(C)no2)cc1S(=O)(=O)Nc1cc(OC)c(OC)c(OC)c1	87	103	nt	97
CCOc1ccc(C(NC(=O)c2cc(OC)c(OC)c(OC)c2)c2cc(Cl)c3cccnc3c2O)cc1 (stereo not given)	46	107	nt	59
COCCNC(=O)C1CCC(C(=O)NCCOC)CC1 (stereo not given)	100	108	-11	111
CCOc1ccc(CNC(=O)c2ccc3c(c2)N(Cc2ccccc2)CCS3)cc1	95	103	8	112
NC(=NC(=O)c1ccc(Cl)cc1)N1N=CCC1c1ccccc1 (stereo not given)	93	106	-10	128
O=C(CSc1nnc(C2CC2)n1C1CC1)c1ccc(CC(=O)N2CCOCC2)s1	75	nt	-31	106
CC1CCC(NC(=O)Cn2ncc3c4ccccc4n(Cc4ccc(F)cc4)c3c2=O)CC1 (stereo not given)	91	99	-11	100
O=S(=O)(NC1CCCC1)c1ccc(-n2cnnn2)cc1	109	100	-2	102
CCOC(=O)c1ccc(NC(=O)CC2SC(=O)NC2=O)cc1 (stereo not given)	nt	101	-4	nt
O=C(Nc1ccc(Br)cn1)Nc1ccccc1C(F)(F)F	103	104	-13	103
COc1ccccc1C(=O)NNc1ncccc1C(F)(F)F	90	106	-20	102
O=C(O)CCc1n[nH]c(=S)[nH]c1=O	92	99	-21	102
CC(=O)NCCC(=O)Nc1ccc(F)cc1C	100	nt	-13	99
CCc1ccccc1NC(=O)Cc1cn(C)c2ccccc12	86	104	-14	106
CC(C)c1ccc(NC(=O)c2cc(S(=O)(=O)N3CCCC3)cn2C)cc1	83	96	nt	91
Cc1ccc(C(=O)Nc2ccc(-c3nc4cc(C)ccc4o3)cc2)cc1	90	102	2	98
